Source: PubChem
KSHV LANA nucl – inhibitors of KSHV LANA-nucleosome binding, primary screen, biochemical, fluorescence polarization, FITC-LANA1-23, chicken nucleosomes; FITC-LANA1-23 / chicken nucleosome fluorescence polarization; hits give low values; 0.3% of 51,000 active; z-score (concentration not given with the values);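 active = both repeat wells score below -2 in polarization z-score versus plate sample wells, excluding overly bright wells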;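 also: 100 nL library stock added to about 30 µL; numbers are from one replicate; some results filed as inactive read as strong as hits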
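Material: Purified chicken nucleosomes with FITC-labelled LANA N-terminal peptide (1-23) | Reagent: 50 nM FITC-LANA1-23 probe | Medium: TEN-BT buffer, pH 7.5 | Times: 10–45 min incubation at room temperature | Detection: Fluorescence polarization | Replication: Duplicates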
BasE inh – BasE siderophore enzyme inhibitors, primary screen, biochemical, Acinetobacter baumannii ATCC 17978, fluorescence polarization; purified BasE, fluorescence polarization binding displacement; inhibition, % (no concentration beside the values); 0.1% of 84,000 active;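 active = both replicates above 25% with normal brightness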;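 also: 0% = negative plate control signal and 100% = positive plate control signal; stock transfer was 100 nL into about 30 µL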
* hit, by the source's call; x = not tested or not shown.

SMILES | KSHV LANA nucl | BasE inh
CCCc1cc(=O)[nH]c(/N=C(\N)Nc2cccc(C)c2)n1 | x | 1.9
CC(C)OC(=O)c1cc2cc(Br)ccc2oc1=O | x | 0.9
Cc1nccn1-c1ccc(C(F)(F)F)cc1NC=O | x | 1.9
CNC(=O)Nc1ccccc1NC1=C(C(=O)OC)CSC1 | x | -2.7
NC(=O)COC(=O)c1n[nH]c2ccccc12 | x | -1.7
Cc1c(C(=O)CC#N)sc2ccc(Cl)cc12 | x | -0.3
COc1ccc(OC(=O)C2CC(=O)N(c3ccc(C)cc3)C2)cc1 (stereo not given) | 0.63 | -1.7
Cc1ccnc(N2CCC(C(=O)O)CC2)n1 | -0.99 | 1.0
CCOC(=O)N1CCC(N(CCOC)C(=S)Nc2ccccc2F)CC1 | 0.084 | 2.3
CCCNC(=O)CSc1nnc(-c2ccncc2)n1CCOC | x | 2.3
COc1ccc(CC(=O)N2CCN(C(=O)Cc3ccc(OC)cc3)CC2)cc1 | -0.45 | 0.6
CNC(=S)Nc1ccc(N2CCN(c3ccc(C(F)(F)F)cn3)CC2)nc1 | x | 1.5
O=C(COC(=O)[C@@H]1CC(O)CN1S(=O)(=O)c1ccc2c(c1)OCCO2)c1ccccc1 (stereo not given in full) | x | -1.3
Cc1nc2ccc(NC(=O)N(C(C)C)C(C)C)cc2s1 | 0.64 | -1.6
CS(=O)(=O)c1sc(C(=O)Sc2cccs2)c2c1C=CCC2 | -0.46 | -4.8
CC1=C(C(N)=O)C(c2cccs2)NC(=S)N1 (stereo not given) | x | 2.1
COC(=O)c1cc(COC(=O)CNC(=O)C23CC4CC(CC(C4)C2)C3)oc1C | x | -0.7
c1ccc(Nc2ncnc3sccc23)cc1 | x | 0.6
Brc1ccc(-c2nnco2)cc1 | 0.57 | -3.0
CCOC(=O)Cc1c[nH]c2ccccc12 | -0.18 | 0.2
CCC(C)NC(=O)c1oc2ccc3c(c2c1C)C(=O)CC1(CCCC1)O3 (stereo not given) | 2 | -3.9
COc1ccc(/C=C(/C#N)S(=O)(=O)C2CCCCC2)cc1 | x | 0.3
Cn1c2ccccc2c2nnc(SCCC(=O)N3CCCC3)nc21 | -0.093 | 1.9
CC(CNC(=O)c1cc(C2CC2)[nH]n1)c1ccccc1 (stereo not given) | -1.4 | -1.2
O=C(Cc1ccccc1)c1c[nH]c(C(=O)NC2CCCC2)c1 | -0.64 | x
O=C(NCC1CCCO1)C1c2ccccc2C(=O)N1CCc1ccccc1 (stereo not given) | 0.011 | 2.8
CCN(C(=O)c1ccc2c(=O)n3c(nc2c1)CCCCC3)c1cc(OC)ccc1OC | -0.42 | -2.7
CCOC(=O)c1cnc2c(ccc3ccccc32)c1NCCOC(=O)c1cccnc1 | x | -0.3
Cc1nnc(SC(C)C(=O)NC(C)(C#N)C(C)C)n1-c1ccccc1 (stereo not given) | x | -0.3
O=C1/C(=C/c2cccs2)SC(=S)N1Cc1ccccc1 | x | -0.1
CCCCNC(=O)c1cc(=O)[nH]c2ccc(Br)cc12 | 0.89 | 1.1
O=C(c1cc(C2CC2)nn1-c1ccccc1)N1CCN(c2ccccn2)CC1 | x | 2.8
CCSC1(SCC)N=C(N)C2(C#N)C(c3ccccc3Br)C12C#N (stereo not given) | -0.11 | -1.2
CC(C)(C)n1nc2c(c1NC(=O)Nc1ccccc1)CSC2 | -0.9 | 2.8
Cc1c(CCN)sc2nc(-c3ccc(Cl)cc3)nn12 | 1.3 | -16
CC(Oc1ccc(C#N)cc1)C(=O)N1CC=C(c2ccccc2)CC1 (stereo not given) | x | 3.9
COc1cccc(-c2nnc(SCC3CNC(=O)O3)n2-c2ccc(Cl)cc2)c1 (stereo not given) | x | -0.1
C1CCC(Nc2nnc(SCC3CCCCO3)s2)CC1 (stereo not given) | x | 2.2
O=c1[nH]c2c(cnn2-c2ccccc2)c(=O)n1-c1ccc(Cl)c(Cl)c1 | -0.16 | 3.5
O=C(CN1C(=O)C2C3C=CC(C3)C2C1=O)N1CCN(c2ccccc2)CC1 (stereo not given) | 0.22 | 1.2
CN1CC(=O)NC(=O)C1 | x | 1.5
Clc1ccc2c(c1)CN(Cc1ccccc1)CO2 | 0.19 | -2.4
CCC(C)(C)C(=O)Nc1nnc(COC)s1 | 0.12 | 1.7
CC(C)(C)c1nc(N)nc(NNS(=O)(=O)c2ccccc2C(F)(F)F)n1 | -0.5 | 1.8
O=C(O)c1cc2cc(Br)cc(Br)c2oc1=O | -0.91 | x
CCC(=O)NC(Nc1ccc(S(=O)(=O)Nc2ccc(OC)nn2)cc1)(C(F)(F)F)C(F)(F)F | -0.23 | 7.1
O=C(c1ccc(CSc2ncn[nH]2)cc1)N1CCc2ccccc21 | x | -1.1
COc1ccc(C2=NN(CC(=O)NCCN3C(C)CCCC3C)C(=O)CC2)cc1 (stereo not given) | 0.65 | -1.9

A draw from above in order of length of the SMILES, ascending.
SMILES | KSHV LANA nucl | BasE inh
C1CCC(Nc2nnc(SCC3CCCCO3)s2)CC1 (stereo not given) | x | 2.2
O=C(CN1C(=O)C2C3C=CC(C3)C2C1=O)N1CCN(c2ccccc2)CC1 (stereo not given) | 0.22 | 1.2
CCC(=O)NC(Nc1ccc(S(=O)(=O)Nc2ccc(OC)nn2)cc1)(C(F)(F)F)C(F)(F)F | -0.23 | 7.1

3 entries from above, arranged by their value in KSHV LANA nucl, low to high.
molecule | KSHV LANA nucl
CCC(C)(C)C(=O)Nc1nnc(COC)s1 | 0.12
Clc1ccc2c(c1)CN(Cc1ccccc1)CO2 | 0.19
COc1ccc(C2=NN(CC(=O)NCCN3C(C)CCCC3C)C(=O)CC2)cc1 (stereo not given) | 0.65

Remaining list, next part:
SMILES | KSHV LANA nucl | BasE inh
CC1CCCC(NC(=O)c2ccc3c(c2)N(Cc2ccccc2)C(=O)CS3=O)C1C (stereo not given) | 0.79 | 2.9
N#C/C(=C\N1CCC(n2cccc2)CC1)S(=O)(=O)c1ccccn1 | x | -0.9
N#CC(Nc1ccc(Cl)cc1Cl)c1ccccc1 (stereo not given) | x | 2.1
CCCC(=O)Nc1nc(CC(=O)OCC)cs1 | -0.88 | 0.3
Cc1ccc(S(=O)(=O)N=C2SCCCS2)cc1 | 0.016 | -2.8
COC(=O)c1ccc2c(c1)N(C)S(=O)(=O)/C(=C\Nc1ccc(Cl)cc1)C2=O | x | 2.5
CCC1=C(C(=O)OC)C(c2cccc(O)c2)n2ncnc2N1 (stereo not given) | 0.27 | 0.5
CCc1ccccc1CSc1n[nH]c(=O)n1Cc1ccco1 | 0.42 | -1.8
COc1ccccc1N=c1scc(-c2ccco2)n1/N=C/c1ccccn1 | x | -2.5
CC(C)Nc1nc(Cl)nc(Nc2ccc(-c3nc4ccccc4o3)cc2)n1 | -0.2 | 4.2
CCOC(=O)C1=C(N)Oc2c(c(=O)[nH]c3ccccc23)C1c1ccc(OC)c(OC)c1 (stereo not given) | -1.1 | 0.5
O=C(O)CN=CC1=C(O)CC(c2ccccc2)CC1=O (stereo not given) | 1.2 | -0.4

Entries of single compounds from above. Values in the order: KSHV LANA nucl	BasE inh
N#C/C(=C\N1CCC(n2cccc2)CC1)S(=O)(=O)c1ccccn1 reads x	-0.9
CCCC(=O)Nc1nc(CC(=O)OCC)cs1 reads -0.88	0.3
O=C(O)CN=CC1=C(O)CC(c2ccccc2)CC1=O (stereo not given) reads 1.2	-0.4
CC1CCCC(NC(=O)c2ccc3c(c2)N(Cc2ccccc2)C(=O)CS3=O)C1C (stereo not given) reads 0.79	2.9
CCOC(=O)C1=C(N)Oc2c(c(=O)[nH]c3ccccc23)C1c1ccc(OC)c(OC)c1 (stereo not given) reads -1.1	0.5

Further compounds:
SMILES | KSHV LANA nucl | BasE inh
Cc1cc(C(=O)NCc2ccc(S(N)(=O)=O)cc2)cs1 | 2.7 | -1.6
CCCc1cc(=O)n2c(nc3ccccc32)[nH]1 | -0.74 | 3.3
N#CCOC(=O)[C@H](Cc1ccccc1)N1C(=O)c2ccccc2C1=O | x | 2.6
CC(C)(C)NS(=O)(=O)c1ccc(NC(=O)CN2C(=O)c3ccccc3C2=O)cc1 | -1.3 | 0.9
O=C(Nc1ccccc1)Nc1ccc(-c2nnc3n2CCCCC3)cc1 | x | 1.9
CC(C)(C#N)N1CCN(c2ccccc2)CC1 | -0.33 | x
CCOc1ccc(NC(C)C(=O)NCc2ccc3c(c2)OCO3)cc1 (stereo not given) | x | -2.7
CCN(CC)S(=O)(=O)c1ccc2c(c1)c(=O)c(C(=O)NCc1cccs1)cn2C | 0.88 | 1.0
N#C/C(=C(/O)COc1ncnc2ccccc12)c1nc2ccccc2[nH]1 | x | -2.8
CCOC(=O)N1CCN(C(=O)CN(c2ccccc2)S(=O)(=O)c2ccc(F)cc2)CC1 | 0.24 | 0.1
C=CCNc1sc(C(=O)c2cccs2)c(N)c1C#N | -0.65 | 1.2
Cc1cc(C)nc(N/C(=N\S(=O)(=O)Cc2ccccc2)Nc2ccccc2Br)n1 | x | 1.9
N#Cc1ccc(OC(=O)c2ccc(Cl)cc2)cc1 | -1.2 | 1.3
CN1C(=O)N(CCOc2ccc(Cl)cc2)C(=O)C1(C)C | x | -0.7
c1ccc(-c2ccnc3nc(-n4cccc4)nn23)nc1 | 0.5 | x
CCC(=O)n1nc(NCc2ccc(F)cc2)nc1NCc1ccc(F)cc1 | 0.021 | -0.7
O=C(c1ccccc1)c1ccco1 | x | 1.9
CCN[C@H]1CN(CCCOC)S(=O)(=O)c2sc(S(N)(=O)=O)cc21 | 0.025 | -0.1
CC(C)CCOc1ccc2c3c(c(=O)oc2c1)CCC3 | -0.81 | 1.8
O=C(O)c1ccc(COc2ccc(Cl)cc2)o1 | -0.72 | 5.0
CCOC(=O)c1nn(-c2ccccc2)c(C#N)c1NC(=O)c1nn(CC)cc1Br | x | 0.1
COc1ccc(/C=C(\C#N)C(=O)C(C)(C)C)cc1 | x | -0.2
COc1ccc(CCNC(=O)C(C(C)C)N2C(=O)c3ccccc3C2=O)cc1 (stereo not given) | x | 1.3
O=C(CNC(=O)C12CC3CC(CC(C3)C1)C2)N1CCN(c2ccccc2Cl)CC1 | x | 1.8

Copied from the list:
COc1ccc(CCNC(=O)C(C(C)C)N2C(=O)c3ccccc3C2=O)cc1 (stereo not given) @ BasE inh: 1.3
N#Cc1ccc(OC(=O)c2ccc(Cl)cc2)cc1 @ KSHV LANA nucl: -1.2
CCC(=O)n1nc(NCc2ccc(F)cc2)nc1NCc1ccc(F)cc1 @ BasE inh: -0.7
O=C(CNC(=O)C12CC3CC(CC(C3)C1)C2)N1CCN(c2ccccc2Cl)CC1 @ BasE inh: 1.8
CCOC(=O)c1nn(-c2ccccc2)c(C#N)c1NC(=O)c1nn(CC)cc1Br @ BasE inh: 0.1
CCN[C@H]1CN(CCCOC)S(=O)(=O)c2sc(S(N)(=O)=O)cc21 @ BasE inh: -0.1

New compounds follow
SMILES | KSHV LANA nucl | BasE inh
Cc1cc(NC(=O)c2cc(-c3ccccn3)nc3ccccc23)n[nH]1 | x | 3.9
CN1CCN(C(=O)CC(c2ccccc2)c2ccccc2)CC1 | 0.85 | -0.8
CC(c1ccccc1)n1c(SCC(=O)N(C)C)nc2ccccc2c1=O (stereo not given) | x | 0.7
COc1cccc(C2=NOC(C(=O)Nc3cccnc3)C2)c1 (stereo not given) | -1.4 | -0.1
CCOC(=O)c1c(N)sc2c1CN(C(=O)OC)N(C(=O)OC)C2 | 1.3 | -4.2
Cc1ccccc1-n1ccnc1SCC(=O)O | x | 2.1
CC1CCC(NC(=O)CCN2C(=O)C3CC=CCC3C2=O)CC1 (stereo not given) | x | 0.7
O=C1CCC(=O)N1OCCCOc1ccccc1 | 0.23 | -1.2
N=c1ccn2c(n1)O[C@H]1[C@H](O)[C@@H](CO)O[C@H]12 | 1.4 | x
CC1(C)CC(=O)C=C(OC(=O)c2ccc(C(C)(C)C)cc2)C1 | x | -0.5
COc1ccc(C2=NC3Oc4c(C)cccc4C=C3C(=O)N2)c(OC)c1OC (stereo not given) | 0.21 | 0.0
COC(=O)c1ccc(COC(=O)/C=C/c2c(C)nn(Cc3ccccc3)c2Cl)o1 | x | 1.3
CCS(=O)(=O)N1CCC(NC(=O)c2cc(OC)cc(OC)c2)CC1 | 0.058 | -3.9
O=c1c(N2CCCC2)c(Cl)cnn1-c1ccccc1 | -1.5 | -1.3
COc1cc(C(=O)N(CCc2ccccc2)C2CC3CCC(C2)N3C)cc(OC)c1OC (stereo not given) | 0.39 | 1.2
O=C(NC(=S)NC1CCCCC1NC(=S)NC(=O)c1ccco1)c1ccco1 (stereo not given) | x | -0.1
CN(C1CCS(=O)(=O)C1)S(C)(=O)=O (stereo not given) | -0.46 | 2.1
CCn1c(C)[n+](CC)c2ccc(S(=O)(=O)C(F)(F)F)cc21 | 0.029 | 4.4
Cc1ccc(NCc2nnc(SCC(=O)N3CCOCC3)o2)c(C)c1 | -0.23 | -0.4
CC(C)(C)c1ccc(NNC(=O)c2ccno2)cc1 | 0.26 | 0.3
CCOC(=O)c1cnn(CCOC(=O)c2ccco2)c1NC(=O)c1ccco1 | 1.9 | -4.3
CC(C)(C)C1CCc2c(sc3nc(-c4cccs4)oc(=O)c23)C1 (stereo not given) | x | -0.2
CC(C)(C)OC(=O)/C(C#N)=C/c1cccs1 | 0.18 | -0.5
CCN(CC)S(=O)(=O)c1ccc2nc(NC(=O)c3cc(OC)c(OC)c(OC)c3)sc2c1 | 0.22 | -1.6
COc1ccc(-n2c(Cn3ncc4ccccc4c3=O)n[nH]c2=S)cc1 | 0.062 | 0.2
CC(OC(=O)c1ccccc1)C(=O)NCc1ccc2c(c1)OCO2 (stereo not given) | x | 3.1
COc1ccccc1C(=O)NCC(C)(C)CN=C1NS(=O)(=O)c2ccccc21 | -0.73 | -1.4
O=C(Cn1c(=O)oc2ccccc21)N1CCCCC1 | -0.97 | -0.1

These rows are one share of the data, so the mix of outcomes need not match the whole.
